Compound activity (PubChem)
Polio RdRp inh = poliovirus RdRp elongation inhibitors, primary screen, biochemical, fluorescence polarization, total intensity; Genome polyprotein (Poliovirus type 1 (strain Mahoney)), P03300; poliovirus polymerase elongation; active compounds read low; % elongation, % (compound at 16.7 µg/mL); actives 0.66% (n = 150,000); AID 588519, 2011; in the data active = % elongation below about 90%; also: some results filed as inactive read as strong as hits
Target sequence (P03300 1749-2209 limits assumed): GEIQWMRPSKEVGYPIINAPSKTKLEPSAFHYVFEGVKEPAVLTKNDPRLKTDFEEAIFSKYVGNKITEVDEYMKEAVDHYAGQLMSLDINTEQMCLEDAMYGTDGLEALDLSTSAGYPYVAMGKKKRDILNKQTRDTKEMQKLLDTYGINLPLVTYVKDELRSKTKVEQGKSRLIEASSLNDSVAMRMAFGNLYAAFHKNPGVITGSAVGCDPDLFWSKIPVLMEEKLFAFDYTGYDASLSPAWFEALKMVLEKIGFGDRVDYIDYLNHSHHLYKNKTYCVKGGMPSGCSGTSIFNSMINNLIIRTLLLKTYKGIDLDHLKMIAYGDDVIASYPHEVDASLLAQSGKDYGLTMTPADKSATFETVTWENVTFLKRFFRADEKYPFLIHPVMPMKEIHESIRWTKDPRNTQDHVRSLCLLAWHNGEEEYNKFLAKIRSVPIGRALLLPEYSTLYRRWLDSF
Polio RdRp inh intensity = further read-out of Polio RdRp inh, marked with its call; % elongation; measured here: total intensity read-out; formula for this scale not given here;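 total fluorescence in place of polarization; lower means less elongation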
Active calls of the source: *.

SMILES	Polio RdRp inh	Polio RdRp inh intensity
Cc1ccc(C)c(Cn2c(=O)n(CCC(=O)NCc3ccc4c(c3)OCO4)c(=O)c3sccc32)c1	109	113
COc1ccc(C(=O)c2cn(Cc3cccc(C)c3)c3cc4c(cc3c2=O)OCCO4)cc1OC	107	109
Cc1nn(-c2ccc(N3CCCCC3)nn2)c(C)c1CCC(=O)NCc1ccc(F)cc1	110	107
COc1ccc(-c2nc(CN3CCC(C(=O)NCc4ccc(C)cc4)CC3)c(C)o2)cc1OC	111	109
Cc1ccc(Nc2nc3ccccc3c3nnc(C)n23)cc1Cl	101	103
CC1=C(C(=O)Nc2ccccc2C)C(c2ccc[nH]2)n2ncnc2N1 (centres undefined)	98	106
O=C1CN(C(=O)c2ccccc2)C(c2ccc(F)cc2)c2cc(Br)ccc2N1 (centres undefined)	105	112
Fc1ccccc1N1CCN(c2ncnc3onc(-c4cccc(Cl)c4)c23)CC1	107	109
Cc1ccc(NC(=O)c2ccc(N(Cc3ccccc3)S(C)(=O)=O)cc2)cc1	100	105
Cc1cc2c(cc1S(=O)(=O)N1CCC(C(N)=O)CC1)OCC(=O)N2	106	108
CCCCCn1c(CCNC(=O)c2cccc(C)c2)nc2ccccc21	108	111
CC(C)C(NS(=O)(=O)c1ccc2c(c1)oc(=O)n2C)C(=O)N1CCN(c2cccc(Cl)c2)CC1 (centres undefined)	112	106
Nc1nc(N)c(S(=O)(=O)c2ccccc2)c(Nc2ccc(F)cc2)n1	107	108
CCCCN(CCCNC(=O)c1cc(Nc2ccc(OC)cc2OC)nc2ccccc12)Cc1ccccc1	109	109
Cc1ccccc1NS(=O)(=O)c1nnc(NC(=O)c2ccc(Cl)cc2)s1	105	106
Cc1ccc(CCNC(=O)c2ccc(CS(=O)(=O)Cc3ccccc3F)o2)cc1	104	97
Cc1ccc(Cl)cc1NC(=O)Nc1cn(CC(C)C)c(=O)c2ccccc12	69*	72*
COC(=O)c1ccccc1NC(=O)CCn1c(=O)c2cccn2c2cccnc21	106	105
Cc1cccc(C)c1NC(=O)Cn1cc(C(=O)C2CC2)c2ccccc21	104	105
CC(C)(C)c1ccc(S(=O)(=O)N2CCN(C(=O)c3cc(-c4ccc(Br)cc4)n[nH]3)CC2)cc1	110	94
O=C(NCc1ccccc1Cl)C1CCCN(S(=O)(=O)c2cccc3nsnc23)C1 (centres undefined)	110	110
CCc1ccccc1NC(=O)Cn1c(SCc2ccc(F)cc2)nc2ccncc21	104	107
CC(C)c1nc2n(n1)C1(CCCCC1)[C@@H]1CCCC[C@@H]1N2	109	102
COc1ccc(NC(=O)CSc2cc(-c3ccccc3)nc(C)n2)cc1	99	92
COCCNC(=O)c1ccc2c(c1)N(Cc1cc(C)ccc1C)C(=O)c1ccccc1S2=O (centres undefined)	104	108

In the list so far, 2 contain an aryl thioether with sulfur outside any ring.
SMILES	Polio RdRp inh	Polio RdRp inh intensity
CCc1ccccc1NC(=O)Cn1c(SCc2ccc(F)cc2)nc2ccncc21	104	107
COc1ccc(NC(=O)CSc2cc(-c3ccccc3)nc(C)n2)cc1	99	92

Later entries:
SMILES	Polio RdRp inh	Polio RdRp inh intensity
O=C(NC1CC(=O)N(c2ccc(Cl)cc2)C1)C1CCCC1 (centres undefined)	102	102
Cc1ccc(C(=O)Nc2ccc3c(c2)n(C)c(=O)c(=O)n3C)cc1	107	107
COc1ccc(C)cc1NC(=O)Cn1c(=O)ccc2cc(S(=O)(=O)N3CCC(C)CC3)ccc21	109	111
CCOc1ccc(C(=O)N2CCc3cc(OC)c(OC)cc3C2COc2ccc3c(C)cc(=O)oc3c2)cc1OCC (centres undefined)	107	110
COC(=O)c1scc(-c2ccc(C)cc2)c1S(=O)(=O)Nc1ccc(F)cc1F	105	113
CCCN1C(C(=O)c2ccccc2)=C(OC(=O)c2ccc(F)cc2)c2ccccc2S1(=O)=O	114	119
Nc1c(-c2nc(-c3cccs3)no2)nnn1-c1ccccc1Cl	114	118
Cn1c(C(=O)NCc2ccc(F)cc2)cc2cc(S(=O)(=O)N3CCCCC3)ccc21	115	105
CC(=O)N1CCc2c(sc3c2c(=O)n(Cc2ccccc2)c(=O)n3CC(=O)Nc2ccc(C)c(F)c2)C1	103	111
COc1ccc(N(Cc2cccs2)C(=O)Nc2cccc(Cl)c2)cc1	105	109
Cc1nc(-c2ccc(S(=O)(=O)NCc3ccc(OC(C)C)cc3)cc2)co1	110	114
COc1ccc(C2CC(=O)Nc3cc4c(cc32)OCO4)c(OC)c1 (centres undefined)	109	111
COc1ccccc1-c1cc(C(F)(F)F)nc(S(=O)(=O)CCCC(=O)Nc2ccc(F)c(Cl)c2)n1	106	109
COc1cc(NC(=O)CCc2c(C)nn(-c3ccc(N4CCOCC4)nn3)c2C)cc(OC)c1OC	106	98
Cc1nnc(NC(=O)CSCc2cc(=O)c3ccccc3[nH]2)s1	106	102
CCn1c(=O)c2cc(C(=O)N(C)c3cc(Cl)c(OC)cc3OC)sc2c2ccccc21	108	108
CCOc1ccc(N2CC(c3nc4ccccc4n3CCCOc3ccc(OC)cc3)CC2=O)cc1 (centres undefined)	107	110
COC(=O)CN1C(=O)CSc2ccc(S(=O)(=O)Nc3ccccc3)cc21	107	112
Cc1ccc(Cl)cc1-n1nnc(-c2nsc(NC(=O)c3ccccc3Cl)n2)c1C	106	111
Cc1ccc(C)c(NC(=O)NCc2ccc3c(c2)CCN3C(=O)c2ccccc2)c1	108	115
COc1ccc(OC)c(CNC(=O)Cc2ccc(NC(=O)N3CCCCc4ccccc43)cc2)c1	108	108
Cc1oc2ccc(O)c(CN(C)Cc3ccccc3)c2c1C(=O)Nc1ccccc1	112	105
COc1ccc2c(c1)c(=O)c(S(=O)(=O)c1ccc(F)cc1)cn2Cc1ccccc1Cl	103	103
CN(C)CCNC(=O)CN1N=C(c2ccccc2)CCC1=O	109	103
CCc1c(C)sc2c1CCN(Cc1ccc(F)cc1)C2c1ccccc1 (centres undefined)	112	122
Later entries.
SMILES	Polio RdRp inh	Polio RdRp inh intensity
CCOC(=O)N1CCc2c(sc(NCc3sccc3C)c2C(=O)Nc2cc(Cl)ccc2OC)C1	105	97
Cc1cccc(OCc2cc(=O)n3c4c(sc3n2)CCCC4)c1C	114	108
COc1ccccc1N1CCN(C(=O)c2cc3c(=O)n(Cc4ccco4)ccc3nc2C)CC1	108	109
CC(=O)c1ccc(N2CCN(C(=O)c3cn(C)c(=O)c4c3c3ccccc3n4C)CC2)cc1	107	108
COc1ccc(C)cc1NC(=O)CSc1nc(=O)n(Cc2ccccn2)c2c1CCC2	108	103
Cc1cccc2sc(N3CCN(C(=O)CS(=O)(=O)c4ccc(F)cc4)CC3)nc12	110	113
N#Cc1ccccc1NC(=O)CSc1nc(-c2ccccc2)cc(C(F)(F)F)c1C#N	118	169
COc1cc(Cl)c(NS(=O)(=O)c2ccc(-c3coc(C)n3)cc2)c(OC)c1	113	110
Oc1c(C(c2ccccc2)N2CCC(O)CC2)sc2nc(-c3ccco3)nn12 (centres undefined)	107	107
O=S(=O)(Nc1ccc(C(F)(F)F)cc1)c1ccc2c(c1)OCCO2	108	107
COCCNC(=O)Cn1cc(S(=O)(=O)Cc2ccccc2Cl)c2ccccc21	109	100
COc1cccc(C(=O)Nc2ccc3nc(SCCOc4ccccc4)sc3c2)c1	107	114
Cc1noc(C)c1S(=O)(=O)Nc1ccc(C(=O)Nc2ccc(Br)cc2)cc1	103	105
CCCSc1nc(=O)c2c(n1C)NC(=O)CC2c1cccc(F)c1F (centres undefined)	107	100
CCCCOc1ccc(S(=O)(=O)Nc2ccc(-c3ccc(N4CCCCCC4)nn3)cc2)cc1	105	104
CC(C)NC(=O)Nc1ccc2c(c1)N(C)C(=O)c1ccccc1S2	114	111
Nc1c(C(=O)Nc2ccc(F)cc2)sc2nc(-c3cccs3)cc(C(F)(F)F)c12	84	232
COc1ccccc1NC(=O)c1c(C)cc(C)nc1SCC(=O)Nc1ccc(C)cc1	104	101
CCc1ccc(C(=O)c2cn(CC(=O)Nc3ccc4c(c3)OCCO4)c3ccc(CC)cc3c2=O)cc1	102	106
COc1ccc(-n2ncc3c(NC4CCCC4)ncnc32)cc1	106	94
CCc1cccc(NC(=O)Cn2ccn3nc(-c4ccc(OC)c(OC)c4)cc3c2=O)c1	103	107
COc1ccc(CCNCc2c(C(=O)O)c(C)n(Cc3ccccc3C)c2C)c(OC)c1	109	115
CCc1cccc(C)c1NS(=O)(=O)c1cc2[nH]c(=O)c(=O)[nH]c2cc1C	102	106
CCNC(=O)CC1C(=O)N(c2ccc(F)cc2)C(=O)N1CCOC (centres undefined)	103	104
COc1ccc(CCNC(=O)C2CCN(S(=O)(=O)c3c(C)noc3/C=C/c3ccc(C)cc3)CC2)cc1OC	105	111

Pulled by structure from the list above (4):
SMILES	Polio RdRp inh	Polio RdRp inh intensity
O=S(=O)(Nc1ccc(C(F)(F)F)cc1)c1ccc2c(c1)OCCO2	108	107
CC(=O)c1ccc(N2CCN(C(=O)c3cn(C)c(=O)c4c3c3ccccc3n4C)CC2)cc1	107	108
CCCSc1nc(=O)c2c(n1C)NC(=O)CC2c1cccc(F)c1F (centres undefined)	107	100
COc1ccccc1NC(=O)c1c(C)cc(C)nc1SCC(=O)Nc1ccc(C)cc1	104	101

Some of the entries so far, with values under each structure:
Values run as follows: Polio RdRp inh, Polio RdRp inh intensity
CC(C)NC(=O)Nc1ccc2c(c1)N(C)C(=O)c1ccccc1S2
 : 114, 111
COCCNC(=O)Cn1cc(S(=O)(=O)Cc2ccccc2Cl)c2ccccc21
 : 109, 100
CC(=O)N1CCc2c(sc3c2c(=O)n(Cc2ccccc2)c(=O)n3CC(=O)Nc2ccc(C)c(F)c2)C1
 : 103, 111
COc1ccc(CCNC(=O)C2CCN(S(=O)(=O)c3c(C)noc3/C=C/c3ccc(C)cc3)CC2)cc1OC
 : 105, 111

(listing goes on)
SMILES	Polio RdRp inh	Polio RdRp inh intensity
CCOC(=O)COc1ccccc1C1C(C(=O)OC)=C(C)NC2=C1C(=O)c1ccccc12 (centres undefined)	108	106
COCCn1ccc2c(OCC(=O)Nc3c(C)cc(C)cc3C)cccc2c1=O	101	100
CCCCNC(=O)c1cc(-c2ccc(Cl)c(Cl)c2)on1	107	109
Cc1nn(CC(=O)NC(C)c2ccccc2)c(=O)c2cc3occc3n12 (centres undefined)	102	106
Cc1cc(-n2ccnc(NCCc3ccc(S(N)(=O)=O)cc3)c2=O)ccc1Br	104	110
CCN1C(=O)C2(c3ccccc31)c1c(oc3ccccc3c1=O)C(=O)N2CCOC (centres undefined)	117	115
Cc1ccc(C2c3[nH]c4ccccc4c3CCN2C(=O)CCc2ccccc2)cc1 (centres undefined)	103	111
COc1ccc(N2CCN(C(=O)CSc3n[nH]c(-c4ccccc4)n3)CC2)cc1	105	105
CCOc1ccc(NC(=O)N(Cc2c[nH]c3ccccc23)C2CCCCC2)cc1	110	108
O=C(COc1ccccc1F)Nc1ccc(Cl)c(-c2nc3ccccc3[nH]2)c1	102	99
COc1cc(NC(=O)N2CCN(c3cc(-c4noc(C)n4)ccc3C)CC2)cc(OC)c1OC	105	110
COc1ccccc1CNC(=O)CCC1N=C2c3ccccc3N=C(SCC(=O)Nc3ccc(F)cc3)N2C1=O (centres undefined)	105	111
O=S1(=O)c2ccccc2N(Cc2cccc(F)c2)c2ccccc21	103	106
Cc1nc(N2CCCC2)ncc1C(=O)N1CCN(c2ccccc2F)CC1	108	112
CC(C)N(C(=O)Cn1cc(S(=O)(=O)Cc2ccc(Br)cc2)c2ccccc21)C(C)C	118	119
COc1ccc(S(=O)(=O)Nc2cccc(-c3ccc(N4CCCC4)nn3)c2)cc1F	112	110
O=C(Cn1nnc2sc(-c3ccccc3)cc2c1=O)Nc1cccc(C(F)(F)F)c1	126	138
Cn1cnc(S(=O)(=O)N2CCCC(C(=O)Nc3ccc(OC(F)(F)F)cc3)C2)c1 (centres undefined)	106	111
Cc1ccc(Nc2c(-c3ccc(C)s3)nc3ncccn23)cc1	109	110
CCOc1ccccc1NC(=O)CN1C(=O)C2(SCC(=O)N2c2cccc(F)c2)c2ccccc21 (centres undefined)	108	107
CCc1cccc(C)c1NC(=O)Cn1cnc2c1c(=O)n(C)c(=O)n2C	106	109
Cc1ccc(NC(=O)Cn2c(=O)n(Cc3ccccc3)c(=O)c3c(C)c(C(=O)N(C)C)sc32)c(C)c1	106	112
Cc1ccc(Nc2ncnc3c2cnn3-c2ccccc2)c(C)c1	107	113
O=C1CS(=O)(=O)C2(C(=O)N(Cc3ccccc3)c3ccccc32)N1c1ccccc1 (centres undefined)	112	102
CCOc1cc(C(=O)NCCc2csc3nc(-c4ccc(C)cc4)nn23)cc(OCC)c1OCC	112	115
(listing goes on)
SMILES	Polio RdRp inh	Polio RdRp inh intensity
Cc1ccccc1N1CC(C(=O)Nc2ccc(Br)cc2)CC1=O (centres undefined)	105	110
Cc1ccc(-c2noc(-c3ccccc3NC(=O)C3CC(=O)N(c4ccccc4C)C3)n2)cc1 (centres undefined)	104	91
COc1ccc(N2CCN(C(=O)c3cc(-c4ccc(C)c(F)c4)on3)CC2)cc1	106	100
CCOC(=O)c1cc2c(=O)n3ccccc3nc2n(C)c1=NC(=O)c1cc2ccccc2o1	98	91
COc1ccc(-n2cc(C(=O)OCc3ccc(Cl)cc3)c3ccccc3c2=O)cc1	112	107
CCc1ccc(NC(=O)CSc2nc3c(sc4ccccc43)c(=O)n2CCN(CC)CC)cc1	108	111
COc1ccc(NC(=O)CC2C(=O)N(c3cccc(C)c3)C(=O)N2C2CCCCC2)cc1 (centres undefined)	107	108
Nc1c(-c2nc(-c3ccccc3Cl)no2)nnn1-c1ccccc1C(F)(F)F	119	108
CCCSc1ncc(Cl)c(C(=O)Nc2ccc(CC)cc2)n1	105	107
COc1cc(OC)c(NC(=O)c2cc(CN3CCOCC3)on2)cc1Cl	103	108
CN(C)c1ccc(CNC(=O)c2ccc(Cn3c(=O)c4cccn4c4cccnc43)cc2)cc1	112	114
CC1CCCN(Cc2nc3c(c(=O)n(C)c(=O)n3C)n2Cc2ccc(Cl)cc2Cl)C1 (centres undefined)	108	110

Some of the compounds tested (hit frequency here may not be typical).
